VACV Venus inh: inhibitors of vaccinia virus (Venus reporter). Potency, µM (series often up to 36.5 µM), inactives show at the top dose activity change, negative = inhibition, usual class: inhibitors. Vaccinia virus Venus reporter expression, fluorescence. 0.46% of 330,000 active; active means well fitted inhibition curve with a large enough effect; inconclusive means small, poorly fitted or top-dose-only effect; inactive means no such curve, though single readings can be large or run the other way; tested in A549 cells; further: nearly all actives have a fitted effect of over 30% in size; inactives centre near -10
Vaccinia mCherry: inhibitors of vaccinia virus infection (mCherry reporter signal). Vaccinia virus mCherry reporter infection, fluorescence; about a quarter of the inactives have no number. Potency, µM (top dose mostly 36.5 µM), without a hit: at the highest dose activity change, negative = inhibition, actives largely listed as inhibitors. 0.63% of 310,000 active; active = well fitted inhibition curve with a large enough effect; inconclusive = small, poorly fitted or top-dose-only effect; inactive = no such curve, though single readings can be large or run the other way; tested in A549 cells; further: nearly all actives have a fitted effect of over 35% in size; inactives centre near -10
An asterisk follows results filed as active; i = inactive; ? = inconclusive; . = no result given. On the % scale 0 is the no-effect control and ±100 the full control effect; potency means the concentration at half of the fitted maximal effect.

SMILES | VACV Venus inh | Vaccinia mCherry
CC(=O)c1ccc(N2CCN(C(=O)c3ccc(Cn4c(=O)[nH]c5ccccc5c4=O)cc3)CC2)cc1 | -13% | -17%
COc1ccccc1NC(=O)CN1CCN(CC(=O)Nc2ccc(F)cc2F)CC1 | -5% | -11%
Oc1ccc2ccccc2c1CNn1cnnc1 | -18% | -2%
COc1ccccc1NC(=S)NNC(=O)c1ccncc1 | -19% | -14%
Cc1c(C(=O)OCC(=O)NC2CCCCC2)oc2ccccc12 | -5% | i
O=c1[nH]nc(-c2ccc(F)cc2)cc1-c1ccccc1 | -21% | i
O=C(CSc1ncnc2ccccc12)c1cccs1 | ? | -27%
O=C(NC(=S)N1C[C@H]2C[C@H](C1)c1cccc(=O)n1C2)c1ccc(F)cc1 | -16% | -7%
CCn1c(=O)c2sccc2n2c(CCC(=O)Nc3ccc(OC)c(Cl)c3)nnc12 | -1% | 3%
COc1ccccc1NC(=O)C1(c2ccccc2)CCCC1 | -7% | i
COc1cccc(-c2cc(C(=O)NC3CCCCC3)no2)c1 | 5% | -7%
CCc1noc(C)c1C(=O)Nc1nc2c(C)cc(C)cc2s1 | -14% | -5%
O=C(Nc1nc2c(s1)CCCC2)c1nn(Cc2ccccc2)c(=O)c2ccccc12 | 5% | -16%
O=C(CNC(=O)c1ccc2c(c1)OCCO2)N/N=C/c1ccco1 | -2% | -12%
C=CCn1c(N)cc(=O)nc1SCC(=O)N(c1ccccc1)c1ccccc1 | 0% | -2%
CCOc1ccc(C(=O)NCCc2sc(-c3cccc(F)c3)nc2C)cc1OCC | 2% | 4%
CCS(=O)(=O)NCc1cn2c(C)csc2n1 | -10% | .
CCc1ccccc1N(C(=O)c1snc(C(N)=O)c1N)C(C(=O)NCC1CCCO1)c1ccc(C)o1 (centres undefined) | -15% | -21%
Cc1ccc(NC(=O)COC(=O)/C(=C/c2cccs2)c2cccs2)cc1S(=O)(=O)N(C)C | -10% | -22%
CCn1c(SCC(=O)NCC(=O)Nc2ccc(F)cc2)nnc1-c1cccs1 | -15% | -11%
CC(CCc1ccccc1)NC(=O)Cn1ncc2c3ccccc3n(Cc3ccccc3F)c2c1=O (centres undefined) | -26% | ?
CC(C)c1onc(C(=O)NC2CCCCC2)c1[N+](=O)[O-] | -15% | i
CCOc1ccc(CCN2C(=O)C(=O)N([C@@H](Cc3ccccc3)CN3CCC[C@H]3CN3C(=O)C(=O)NC[C@@H]3Cc3ccccc3)C[C@@H]2CC(C)C)cc1 | ? | ?
Cc1ccc(CNC(=O)C2CCN(C(=O)c3cccc(Cl)c3)CC2)cc1 | -13% | -14%
COC(=O)C1=CNC=C(C(=O)OC)C1c1cccc2ccccc12 | -9% | -5%
CC(C)NC(=O)N(C)C[C@H]1Oc2c(NS(=O)(=O)c3cccs3)cccc2C(=O)N([C@H](C)CO)C[C@@H]1C | -13% | i
CCCn1c(=O)c(C(=O)NNC(=O)c2ccccc2Cl)c(O)c2ccccc21 | -17% | -1%
COc1cc(OC)c2ccc(=O)oc2c1C(CCN1CCN(c2ccccc2)CC1)c1ccc(N(C)C)cc1 (centres undefined) | -7% | -7%
O=C(Nc1cccc(-c2cccc(Cl)c2)c1)C1CCN(Cc2ccccn2)CC1 | -27% | ?
O=C1CC(c2ccccc2)Cc2[nH]c(=O)c(C(=O)Nc3ccc(F)cc3)cc21 (centres undefined) | 3% | -1%
CCCOc1ccc(C(C)=O)cc1Cc1c(O)nc(SC)[nH]c1=O | -11% | i
O=C(CCn1c(=O)c2sccc2n(CC(=O)NCc2ccco2)c1=O)NCc1ccccc1 | -21% | -4%
CSc1ccccc1NC(=O)CNCCCN1CCOCC1 | -10% | -10%
O=S(=O)(c1ccccc1)N1CCN=C1SCc1ccccc1 | -5% | -3%
COC(=O)c1ccc(SCC(=O)NCc2ccccc2)c([N+](=O)[O-])c1 | -5% | -3%
COc1cccc(-c2nc(CS(=O)CC(=O)NC3CCCCC3)c(C)o2)c1 (centres undefined) | -9% | -26%
COc1ccc(N2CCN(C(=O)COc3ncnc4ccccc34)CC2)cc1 | -16% | i
Cc1ccc(-n2ccnc(SCC(=O)NC3CCCC3)c2=O)cc1Cl | -12% | -3%
CC12COC3(C(=O)Nc4ccc(Cl)cn4)CC1CCC32C (centres undefined) | 1% | -1%
CN(C(=O)c1ccccn1)c1nnc(-c2cnccn2)s1 | 4% | 9%

Complete entries from above:
`Cc1ccc(CNC(=O)C2CCN(C(=O)c3cccc(Cl)c3)CC2)cc1` reads VACV Venus inh: -13%; Vaccinia mCherry: -14%
`CC(C)NC(=O)N(C)C[C@H]1Oc2c(NS(=O)(=O)c3cccs3)cccc2C(=O)N([C@H](C)CO)C[C@@H]1C` reads VACV Venus inh: -13%; Vaccinia mCherry: i

Further entries:
SMILES | VACV Venus inh | Vaccinia mCherry
Cc1cc(C)cc(N(CC(=O)N2CCN(c3ccccc3)CC2)S(=O)(=O)c2c(C)noc2C)c1 | -9% | i
CSc1nc(C)cc(OCCO)n1 | -9% | -17%
CN1CCN(NC(=O)c2cccc(C(F)(F)F)c2)CC1 | -11% | -19%
Fc1ccccc1-c1nc(NCC2CC2)nc2ccsc12 | 3% | i
CCOc1cc(/C=N/NC(=O)c2cc(-c3cccnc3)nc3ccccc23)ccc1O | -14% | -5%
CC(C(=O)NC(C)(C)C)N1C(=O)c2cccc3cccc(c23)C1=O (centres undefined) | 2% | -5%
O=C(Nc1nccs1)c1cccc(S(=O)(=O)N2CCCC2)c1 | -17% | -13%
COc1ccccc1OC(C)C(=O)N1CCN(CCc2ccccn2)CC1 (centres undefined) | 13% | 0%
O=C(c1ccccn1)N(c1ccccc1)C1(C(=O)NC2CCCCC2)CCCCC1 | -7% | i
CC(Oc1ccccc1)c1ccnn1S(C)(=O)=O (centres undefined) | -9% | -15%

Molecules above that have an NH in an aromatic ring, in the order listed:
SMILES | VACV Venus inh | Vaccinia mCherry
CC(=O)c1ccc(N2CCN(C(=O)c3ccc(Cn4c(=O)[nH]c5ccccc5c4=O)cc3)CC2)cc1 | -13% | -17%
O=c1[nH]nc(-c2ccc(F)cc2)cc1-c1ccccc1 | -21% | i
O=C1CC(c2ccccc2)Cc2[nH]c(=O)c(C(=O)Nc3ccc(F)cc3)cc21 (centres undefined) | 3% | -1%
CCCOc1ccc(C(C)=O)cc1Cc1c(O)nc(SC)[nH]c1=O | -11% | i

Additional entries.
SMILES | VACV Venus inh | Vaccinia mCherry
CN1CCC2(CC1)N=C(c1ccc(F)cc1)C(=S)N2 | -14% | -8%
O=C(NCc1cn2ccccc2n1)c1ccc(Br)o1 | -8% | i
Cc1ccccc1/C=C/c1nc2ccccc2c(=O)n1Cc1ccccc1 | -7% | -11%
COc1cc(/C=C/C(=O)O)cc(S(=O)(=O)NCCO)c1OC | -8% | -18%
CC(C)(C)c1nc2c(s1)CCc1onc(-c3ccc(Br)cc3)c1-2 | -1% | -2%
Nc1ncc2c(n1)-c1ccoc1CC2 | -13% | i
Cc1ccc([N+](=O)[O-])cc1NC(=S)NC(=O)c1ccco1 | -10% | i
Cc1cc(C(=O)NNc2ccc(F)cc2)no1 | -23% | -13%
O=C1CCN(Cc2ccc(-c3ccccc3)cc2)CCN1Cc1ccccn1 | -11% | -5%
COCCCNC(=O)CCCC(=O)NCCCOC | -4% | -8%
Fc1ccc(Cc2cn3cc(-c4ccc(F)cc4)nc3s2)cc1 | -12% | -10%
COc1ccc(COc2cc(-c3cccc(OC)c3)nc3ccc(N)cc23)cc1 | ? | ?
CC(=O)N1CCc2cc(Br)cc(S(=O)(=O)NCCc3cccc(C)c3)c21 | 2% | 5%
CCc1c(C)c2ccccc2[nH]c1=O | -17% | -1%
O=C(O)C1C2C=CC(C2)C1C(=O)NCCCN1CCOCC1 (centres undefined) | -5% | .
O=C(O)C(Cc1ccccc1)N1C(=O)c2ccccc2C1=O (centres undefined) | -15% | -18%
O=[N+]([O-])c1ccc(S(=O)(=O)NCCN2CCOCC2)cc1 | -2% | i
COc1ccc([N+](=O)[O-])cc1NC(=O)c1cccs1 | -6% | -3%
CCOC(=O)CNS(=O)(=O)c1cc(-c2nnc(Nc3ccc4c(c3)OCO4)c3ccccc23)ccc1C | -25% | -7%
CCCNC(=O)Cn1c(=O)oc2ccccc21 | 15% | .
O=C(O)c1cc(-c2cccs2)[nH]n1 | -7% | i
COc1ccc(Cl)cc1C(=O)NCc1nnnn1-c1ccccc1 | -2% | -12%
O=C(Nc1c(-c2ccccc2)[nH][nH]c1=O)c1ccc(Br)cc1 | -10% | i
CCn1cc(CNC(=O)NC2CCCCC2)c(C)n1 | -9% | -7%
Cc1noc(C)c1S(=O)(=O)N1CCC(C(=O)N2CCN(Cc3ccc4c(c3)OCO4)CC2)CC1 | -6% | -17%
CCOc1ccc(NC(=O)c2cnn(-c3ccccc3)c2-n2cccc2)cc1 | -14% | -12%
O=C(c1cc(-c2ccc(O)cc2)on1)N1CCN(c2ccc(F)cc2)CC1 | -13% | 14%
COc1cc2c(cc1OC)C(NC(=O)C(F)(F)F)C/C2=N\O (centres undefined) | 2% | -10%
COc1cccc(NC(=O)CN(C)C(=O)CC2CCCC2)c1 | -9% | -15%
C#Cc1ccc([C@@H]2C=C(C(=O)N3CCN(Cc4ccc5c(c4)OCO5)CC3)O[C@H](OCC)[C@H]2CCCO)cc1 | ? | -7%
CCn1cc(S(=O)(=O)Nc2ncccn2)cn1 | -16% | -13%
CC(=O)N1c2ccc(S(=O)(=O)N3CCCCCC3)cc2CC1C(=O)NCc1ccccc1C (centres undefined) | -7% | -9%
CC1CC(C)CN(S(=O)(=O)c2ccc(NC(=O)C3CSC4(C)CCC(=O)N34)cc2)C1 (centres undefined) | -25% | -8%
Cc1ccc(/C=C(\C#N)C(=O)Nc2ccc(Br)cc2)o1 | 3% | -4%
CC(Sc1nnc(-c2cccs2)n1Cc1ccccc1)C(=O)NCc1ccc2c(c1)OCO2 (centres undefined) | -16% | .
O=C(Nc1ccc(F)c(Cl)c1)c1cc(C2CCCN(C(=O)c3cccs3)C2)on1 (centres undefined) | -9% | 26%
Cc1ccnc(NC(=O)c2cc([N+](=O)[O-])cc([N+](=O)[O-])c2)c1 | -17% | ?
CCOC(=O)c1c(OCCO)noc1N | -4% | -17%
O=C(O)CCCc1ccccc1 | -9% | -11%
O=C(COc1ccccc1)NCC(=O)N/N=C/c1ccc(Br)cc1 | -22% | -3%

Some values from the list:
In Vaccinia mCherry, O=C(Nc1ccc(F)c(Cl)c1)c1cc(C2CCCN(C(=O)c3cccs3)C2)on1 (centres undefined) is entered as 26%
In VACV Venus inh, CC(Sc1nnc(-c2cccs2)n1Cc1ccccc1)C(=O)NCc1ccc2c(c1)OCO2 (centres undefined) is entered as -16%
In VACV Venus inh, CC(=O)N1c2ccc(S(=O)(=O)N3CCCCCC3)cc2CC1C(=O)NCc1ccccc1C (centres undefined) is entered as -7%
In VACV Venus inh, CCn1cc(S(=O)(=O)Nc2ncccn2)cn1 is entered as -16%
In Vaccinia mCherry, Cc1ccc(/C=C(\C#N)C(=O)Nc2ccc(Br)cc2)o1 is entered as -4%
In VACV Venus inh, O=C(O)CCCc1ccccc1 is entered as -9%
In Vaccinia mCherry, O=C(COc1ccccc1)NCC(=O)N/N=C/c1ccc(Br)cc1 is entered as -3%

The results go on:
SMILES | VACV Venus inh | Vaccinia mCherry
Cc1ccsc1-c1n[nH]c(=S)n1CC(C)C | -8% | -14%
O=C(CNC(=O)COc1ccccc1)NCCc1ccccn1 | 7% | 5%
Cc1ccc(C2=NS(=O)(=O)N(C)C(C(=O)NCc3ccccc3)=C2)cc1 | -17% | i
COC(=O)c1cccc(NC(=O)/C=C/c2ccc3c(c2)OCO3)c1 | ? | ?
Cc1ccc(NC(=O)Cn2cnc([N+](=O)[O-])c2)cc1C | -10% | i
O=Cc1ccc2cccnc2n1 | 3% | 5%
CC(CC(=O)Nc1ccc(F)cc1)S(=O)(=O)c1cc2c3c(c1)CCN3C(=O)CC2 (centres undefined) | -1% | -10%
COCC1CCCN(C(=O)c2cc(COc3ccc4ncccc4c3)on2)C1 (centres undefined) | -15% | -7%
COC(=O)c1ccc(NCCC(=O)O)cc1 | -1% | -10%
COc1ccc(CC(=O)OCC(=O)Nc2cc(S(=O)(=O)N3CCOCC3)ccc2N2CCCC2)cc1 | 4% | -8%
O=C(CN1CCN(CC(=O)Nc2ccc3c(c2)OC2(CCCCC2)O3)CC1)Nc1cccc(F)c1 | -20% | -2%
CCOc1ccc(C(=O)NCC(=O)NC(C)c2ccc(-n3ccnc3)cc2)cc1OCC (centres undefined) | -10% | -11%
C/C(=N\NC(=O)c1cc2ccccc2cc1O)c1cc2ccccc2o1 | -14% | -24%
C=C(C)C(=O)Nc1cccc(C2=NOC3(C2)C[C@H](C(N)=O)N(C(=O)c2ccccc2)C3)c1 (some centres undefined) | -5% | i
CC1=C(C(=O)Nc2ccc(Cl)cc2)C(CC(C)C)n2nc(SCc3ccccc3C)nc2N1 (centres undefined) | -9% | -5%
Cc1ccc(S(=O)(=O)Nc2ccccc2)cc1[N+](=O)[O-] | -8% | -8%
C=CCNc1nc2c3ccccc3n(C(C)=O)c2s1 | -9% | -10%
Cc1ccccc1NC(=O)c1sc(Cl)nc1-c1ccccc1 | 0% | .
Cc1ccc(-c2nc3scc(CCNC(=O)Cc4ccc(Cl)cc4)n3n2)cc1 | -14% | -13%
CN(CC(=O)NCCCc1ccccc1)S(=O)(=O)c1ccc(Br)cc1 | -17% | -12%
CCOC(=O)C(NC(=O)c1ccccc1Cl)(Nc1ccc(C(F)(F)F)cc1)C(F)(F)F (centres undefined) | -7% | i

Source: PubChem BioAssay

Rows are unselected; about 0.87% have a hit in one of these screens.
